Bioassay records deposited in PubChem by Broad Institute.
Env fusion inh – blocks HIV Env-driven cell-cell fusion; inhibition, % at 12.3 µM; AID 651610; HeLa-JRFL Env/CEM21 cell fusion, luciferase; actives 1.1% (n = 360,000);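 active = mean replicate inhibition score of at least 50 and every replicate individually at or above 50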;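 note: 0% = plate neutral controls and 100% = maraviroc near 300 nM; one replicate is shown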
UUG fidelity – yeast start codon fidelity modulation. S. cerevisiae UUG-firefly luciferase reporter, luminescence/redox ratio. activity score, % at 18.7 µM. actives 0.13% (n = 350,000). AID 602363;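 active = replicate mean at a twofold rise or more, about +100% in these data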;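 note: firefly luciferase made from a UUG start codon reports start codon fidelity; reporter light over untreated wells divided by growth signal over untreated wells; some hits fall short of that in this replicate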
* hit, by the source's call; [ ] = another dose, or the depositor's remark. These rows are one share of the data; count on the stated rates, not on these rows.

structure	Env fusion inh	UUG fidelity
C[C@H]1CCCCO[C@H](CN(C)C(=O)Nc2cccc3ccccc23)[C@@H](C)CN([C@@H](C)CO)C(=O)c2cc(NC(=O)NC3CCCCC3)ccc2O1	61*[16.7 µM]	-18
COc1cccc(CNC(=O)C[C@@H]2CC[C@H](NC(=O)C3CCOCC3)[C@H](CO)O2)c1	12[16.7 µM]	-6
CCCNC(=O)N(C)C[C@H]1Oc2ncc(C#C[C@@H](C)O)cc2C(=O)N([C@H](C)CO)C[C@H]1C	-5[16.7 µM]	8
O=C(C[C@H]1CC[C@H]2NC[C@@H](O)COC[C@@H]2O1)NCc1ccc(Oc2ccccc2)cc1	-13[16.7 µM]	-13
COc1ccc(S(=O)(=O)Nc2ccc3c(c2)C(=O)N([C@H](C)CO)C[C@@H](C)[C@@H](CN(C)S(=O)(=O)c2cn(C)cn2)OCCCC[C@H](C)O3)cc1	-1[16.7 µM]	6
COCC(=O)Nc1ccc2c(c1)[C@H]1C[C@@H](CC(=O)N(C)C)O[C@@H](CO)[C@H]1O2	20[16.7 µM]	1
COc1ccc(NC(=O)N(C)C[C@H]2Oc3cc(C#CCN(C)C)ccc3S(=O)(=O)N([C@H](C)CO)C[C@@H]2C)cc1	-22[16.7 µM]	8
O=C(N[C@H]1CC[C@H](CCn2cc(-c3ccccn3)nn2)O[C@H]1CO)c1ccc(F)cc1	50[16.7 µM]	-2
C[C@@H]1CN([C@@H](C)CO)C(=O)c2cc(-c3cccc(F)c3)cnc2O[C@@H]1CN(C)S(=O)(=O)c1cccc(F)c1	19[16.7 µM]	-6
Cc1ccc(-c2cnc3c(c2)C(=O)N([C@H](C)CO)C[C@@H](C)[C@H](CN(C)C(=O)c2cccc(F)c2)O3)cc1	-13[16.7 µM]	6
COc1ccc(CN(C)C[C@H]2Oc3ccc(NC(=O)CCCCCC(=O)Nc4ccccc4N)cc3CC(=O)N([C@H](C)CO)C[C@H]2C)cc1	8[16.7 µM]	3
COc1cccc(NC(=O)N[C@@H]2CC[C@@H](CC(=O)Nc3ccc(-c4ccccc4)cc3)O[C@H]2CO)c1	14[16.7 µM]	-9
CN(C)CC(=O)N[C@@H]1CC[C@@H](CCNC(=O)Nc2ccc(C(F)(F)F)cc2)O[C@@H]1CO	0[16.7 µM]	23
CO[C@@H]1CN(C)C(=O)c2cc(NC(=O)c3cnccn3)ccc2OC[C@H](C)N(C(=O)C2CC2)C[C@H]1C	-2[16.7 µM]	10
C[C@@H]1CCCCO[C@@H](CN(C)S(=O)(=O)c2ccc(F)cc2)[C@H](C)CN([C@H](C)CO)C(=O)c2cc(NC(=O)Nc3ccc(F)cc3)ccc2O1	25[16.7 µM]	-19
CCCN(C)C[C@@H]1OCCCC[C@@H](C)Oc2ccc(NC(=O)Nc3ccccc3)cc2C(=O)N([C@H](C)CO)C[C@@H]1C	-11[16.7 µM]	-4

Structures above shown as hits in Env fusion inh.
structure	Env fusion inh	UUG fidelity
C[C@H]1CCCCO[C@H](CN(C)C(=O)Nc2cccc3ccccc23)[C@@H](C)CN([C@@H](C)CO)C(=O)c2cc(NC(=O)NC3CCCCC3)ccc2O1	61*[16.7 µM]	-18

Other compounds.
structure	Env fusion inh	UUG fidelity
CC(C)C#Cc1ccc2c(c1)O[C@@H](CN(C)C(=O)c1cccnc1)[C@@H](C)CN([C@@H](C)CO)S2(=O)=O	2[16.7 µM]	10
C[C@@H]1CN([C@@H](C)CO)C(=O)c2cc(NC(=O)Cc3ccccc3)ccc2O[C@@H](C)CCCCO[C@H]1CN(C)S(=O)(=O)c1ccc(Cl)cc1	5[16.7 µM]	-10
N#C[C@@H]1[C@H](c2ccccc2)[C@@H](CO)N1S(=O)(=O)c1ccc(-c2ccccc2)cc1	5[16.7 µM]	0
COCC(=O)Nc1ccc2c(c1)[C@@H]1C[C@@H](CC(=O)NCCN3CCCCC3)O[C@H](CO)[C@@H]1O2	24[16.7 µM]	-14
CNC[C@H]1Oc2ccc(NS(=O)(=O)c3cn(C)cn3)cc2C(=O)N([C@@H](C)CO)C[C@@H]1C	-11[16.7 µM]	-1
O=C(Nc1ccc(Cl)cc1)N[C@@H]1CC[C@H](CCNC(=O)c2ccccc2F)O[C@H]1CO	1[16.7 µM]	15
COc1ccc(C#Cc2ccc3c(c2)[C@]2(C(=O)N3)[C@H](c3ccc(O)cc3)N3[C@H](c4ccccc4)[C@H](c4ccccc4)OC(=O)[C@H]3[C@@H]2C(=O)N2CCCCCCC2)cc1	-4[16.7 µM]	0
C[C@@H]1CN([C@@H](C)CO)C(=O)c2cc(C#CC3(O)CCCC3)cnc2O[C@@H]1CN(C)C(=O)C1CCCCC1	3[16.7 µM]	9
COc1ccc(S(=O)(=O)N(C)C[C@H]2OCCCC[C@@H](C)Oc3ccc(NC(=O)NC(C)C)cc3C(=O)N([C@@H](C)CO)C[C@H]2C)cc1	-9[16.7 µM]	6
O=C(C[C@H]1C[C@@H]2c3cc(NC(=O)NC4CCCC4)ccc3O[C@@H]2[C@@H](CO)O1)NCc1cc(F)ccc1F	28[16.7 µM]	-4
CCC(=O)N(C)C[C@H]1Oc2cc(C#CC(C)C)ccc2S(=O)(=O)N([C@H](C)CO)C[C@@H]1C	-4[16.7 µM]	11
C[C@@H]1CCCCO[C@@H](CN(C)C(=O)c2ccncc2)[C@H](C)CN([C@@H](C)CO)C(=O)c2cc(NS(=O)(=O)c3ccccc3)ccc2O1	5[16.7 µM]	-6
C[C@H](CO)N1C[C@H](C)[C@H](CN(C)S(=O)(=O)c2cccs2)Oc2c(NS(=O)(=O)c3cccs3)cccc2C1=O	2[16.7 µM]	-8
O=C(C[C@H]1CC[C@H](NS(=O)(=O)c2ccc(F)cc2)[C@H](CO)O1)N1CCN(c2ccccc2)CC1	1[16.7 µM]	9
C[C@@H]1CN([C@@H](C)CO)S(=O)(=O)c2ccc(C#CC3(O)CCCC3)cc2O[C@H]1CN(C)C(=O)Nc1ccc(F)cc1	-111[16.7 µM]	3
C[C@H](CO)N1C[C@H](C)[C@@H](CN(C)C(=O)C2CCCCC2)Oc2ncc(C#Cc3cccc(F)c3)cc2C1=O	4[16.7 µM]	-4

(further entries)
Every second line gives: Env fusion inh, UUG fidelity
C[C@@H]1CN([C@@H](C)CO)C(=O)c2cc(C3=CCCCC3)cnc2O[C@@H]1CN(C)Cc1cccc(F)c1
  -5[16.7 µM], 10
COc1ccc(NC(=O)Nc2ccc3c(c2)C(=O)N([C@H](C)CO)C[C@H](C)[C@H](CN(C)S(=O)(=O)c2ccc(C)cc2)OCCCC[C@H](C)O3)cc1
  -7[16.7 µM], 13
Cc1ccc(S(=O)(=O)N(C)C[C@H]2Oc3c(NS(=O)(=O)c4cccs4)cccc3C(=O)N([C@H](C)CO)C[C@@H]2C)cc1
  -9[16.7 µM], -6
C[C@H](CO)N1C[C@H](C)[C@@H](CN(C)C(=O)Nc2cccc(F)c2)Oc2ncc(C3=CCCC3)cc2C1=O
  -28[16.7 µM], 8
COCC#Cc1cnc2c(c1)C(=O)N([C@H](C)CO)C[C@@H](C)[C@@H](CN(C)C(=O)c1cccc(F)c1)O2
  -57[16.7 µM], -8
COc1ccc(S(=O)(=O)N(C)C[C@H]2OCCCC[C@H](C)Oc3ccc(NC(=O)Nc4cccc5ccccc45)cc3C(=O)N([C@@H](C)CO)C[C@@H]2C)cc1
  -22[16.7 µM], -20
O=C(C[C@H]1CC[C@H](NS(=O)(=O)c2ccc(F)cc2)[C@H](CO)O1)NCCN1CCCCC1
  -2[16.7 µM], 21
C[C@@H]1CN([C@@H](C)CO)C(=O)c2cccc(N(C)C)c2O[C@H]1CN(C)Cc1ccc(Oc2ccccc2)cc1
  0[16.7 µM], 2
C/C=C/c1cnc2c(c1)C(=O)N([C@@H](C)CO)C[C@@H](C)[C@@H](CN(C)S(=O)(=O)c1cccs1)O2
  -4[16.7 µM], -10
COc1cccc(C#Cc2ccc3c(c2)O[C@@H](CN(C)C(C)=O)[C@@H](C)CN([C@H](C)CO)S3(=O)=O)c1
  17[16.7 µM], 1
COc1ccc(CNC(=O)C[C@H]2C=C[C@@H](NC(=O)c3cccc(F)c3)[C@H](CO)O2)cc1
  32[16.7 µM], -2
Cc1ccc(S(=O)(=O)Nc2ccc3c(c2)C(=O)N([C@@H](C)CO)C[C@H](C)[C@H](CN(C)C(=O)Cc2ccccc2)OCCCC[C@@H](C)O3)cc1
  -40[16.7 µM], 3
C[C@@H]1CCCCO[C@H](CN(C)C(=O)Nc2ccccc2)[C@H](C)CN([C@@H](C)CO)C(=O)c2cc(NS(=O)(=O)c3ccc(Cl)cc3)ccc2O1
  -20[16.7 µM], 0
O=C(C[C@H]1C[C@@H]2c3cc(NC(=O)C4CCC4)ccc3O[C@@H]2[C@H](CO)O1)NCC1CC1
  5[16.7 µM], -1
O=S(=O)(N[C@H]1CC[C@@H](CCn2cc(-c3cccnc3)nn2)O[C@@H]1CO)c1ccc(Cl)cc1
  8[16.7 µM], -5
C[C@@H]1CN([C@@H](C)CO)C(=O)c2cc(NC(=O)NC3CCCCC3)ccc2O[C@@H]1CN(C)Cc1ccc(Cl)c(Cl)c1
  12[16.7 µM], 4
C[C@@H]1CN([C@H](C)CO)C(=O)c2cccc(NC(=O)Nc3ccc4c(c3)OCO4)c2O[C@@H]1CN(C)S(C)(=O)=O
  -27[16.7 µM], -7
C[C@@H]1CCCCO[C@@H](CN(C)S(=O)(=O)c2cccs2)[C@H](C)CN([C@@H](C)CO)C(=O)c2cc(NC(=O)Cc3ccccc3)ccc2O1
  -50[16.7 µM], -9
CC(=O)N(C)C[C@H]1Oc2cc(C#CCC(C)C)ccc2S(=O)(=O)N([C@@H](C)CO)C[C@H]1C
  -55[16.7 µM], 12
C[C@@H]1CN([C@@H](C)CO)C(=O)c2cccc(NC(=O)Nc3ccc(F)cc3)c2O[C@@H]1CN(C)S(=O)(=O)c1ccccc1
  25[16.7 µM], 20
CC1=C2[C@@H](c3ccccc3)OB(O)C[C@@H]2n2c(=O)n(-c3ccccc3)c(=O)n2C1
  1[16.7 µM], 15
C[C@@H]1CN([C@H](C)CO)C(=O)c2cc(C#CC3CCCC3)cnc2O[C@@H]1CN(C)Cc1ccncc1
  -14[16.7 µM], -13
CC(C)NC(=O)N[C@@H]1CC[C@@H](CCNS(=O)(=O)c2ccc(F)cc2)O[C@@H]1CO
  -6[16.7 µM], 7
C/C=C/c1ccc2c(c1)O[C@H](CN(C)CC1CCOCC1)[C@H](C)CN([C@@H](C)CO)S2(=O)=O
  -28[16.7 µM], -14
C[C@H]1CCCCO[C@H](CN(C)S(=O)(=O)c2cccs2)[C@@H](C)CN([C@@H](C)CO)C(=O)c2cc(NS(=O)(=O)c3cn(C)cn3)ccc2O1
  -7[16.7 µM], 2
C[C@@H]1CN([C@H](C)CO)S(=O)(=O)c2ccc(-c3ccccc3)cc2O[C@@H]1CN(C)C(=O)C1CCCCC1
  35[16.7 µM], 5
COc1ccc(CN(C)C[C@H]2Oc3ccc(NC(=O)Nc4ccccc4)cc3C(=O)N([C@@H](C)CO)C[C@@H]2C)cc1
  7[16.7 µM], -10
COc1ccc(NC(=O)Nc2ccc3c(c2)CC(=O)N([C@H](C)CO)C[C@@H](C)[C@H](CN(C)C(=O)Nc2ccc(C(F)(F)F)cc2)O3)cc1
  -20[16.7 µM], 38
C[C@H]1CN([C@@H](C)CO)C(=O)Cc2cc(NC(=O)Cc3cn(C)c4ccccc34)ccc2O[C@@H]1CN(C)S(=O)(=O)c1cccs1
  -5[16.7 µM], -12
CCS(=O)(=O)Nc1ccc2c(c1)C(=O)N(C)[C@H]1CC[C@H](CC(=O)NC)O[C@H]1CO2
  -11[16.7 µM], -16

The closing 2 records of the section above come first, to join the parts.
Every second line gives: Env fusion inh, UUG fidelity
C[C@H]1CN([C@@H](C)CO)C(=O)Cc2cc(NC(=O)Cc3cn(C)c4ccccc34)ccc2O[C@@H]1CN(C)S(=O)(=O)c1cccs1
  -5[16.7 µM], -12
CCS(=O)(=O)Nc1ccc2c(c1)C(=O)N(C)[C@H]1CC[C@H](CC(=O)NC)O[C@H]1CO2
  -11[16.7 µM], -16
Cc1noc(C)c1NC(=O)N[C@@H]1C=C[C@@H](CC(=O)N2CCN(C)CC2)O[C@@H]1CO
  -22[16.7 µM], -11
C[C@H](CO)N1C[C@H](C)[C@H](CN(C)C(=O)NC2CCCCC2)OCCCC[C@H](C)Oc2ccc(NC(=O)C3CCCCC3)cc2C1=O
  -78[16.7 µM], 4
O=C(C[C@@H]1C[C@H]2c3cc(NC(=O)Nc4ccccc4F)ccc3O[C@H]2[C@H](CO)O1)NCc1ccncc1
  12[16.7 µM], -6
C[C@@H]1CN([C@@H](C)CO)C(=O)Cc2cc(NC(=O)Nc3cccc4ccccc34)ccc2O[C@@H]1CN(C)C(=O)Nc1ccc(C(F)(F)F)cc1
  2[16.7 µM], 3
CC(=O)N(C)C[C@@H]1Oc2cc(C#Cc3ccccn3)ccc2S(=O)(=O)N([C@@H](C)CO)C[C@H]1C
  -11[16.7 µM], 12
CO[C@H]1CN(C)C(=O)c2cc(NS(=O)(=O)c3ccccc3)ccc2OC[C@H](C)N(C(=O)NC(C)C)C[C@H]1C
  -9[16.7 µM], -4
C[C@@H]1CN([C@H](C)CO)C(=O)Cc2cc(NC(=O)C3CC3)ccc2O[C@@H]1CN(C)Cc1ccc(-c2ccccc2)cc1
  -35[16.7 µM], -6

Filtered by structure, the entries above with a CF3 group.
Every second line gives: Env fusion inh, UUG fidelity
CN(C)CC(=O)N[C@@H]1CC[C@@H](CCNC(=O)Nc2ccc(C(F)(F)F)cc2)O[C@@H]1CO
  0[16.7 µM], 23
COc1ccc(NC(=O)Nc2ccc3c(c2)CC(=O)N([C@H](C)CO)C[C@@H](C)[C@H](CN(C)C(=O)Nc2ccc(C(F)(F)F)cc2)O3)cc1
  -20[16.7 µM], 38
C[C@@H]1CN([C@@H](C)CO)C(=O)Cc2cc(NC(=O)Nc3cccc4ccccc34)ccc2O[C@@H]1CN(C)C(=O)Nc1ccc(C(F)(F)F)cc1
  2[16.7 µM], 3
